# Screening data (PubChem BioAssay)
# LANA-H2A inh = blocks KSHV LANA binding to histone H2A/H2B; AID 2629; cell-free LANA-H2A/H2B peptide, fluorescence polarization; Q9QR71; 320,000 tested, 0.6% active; inhibition, % (test concentration not listed); in the data active = inhibition mostly above about 10%, no sharp cut-off; inactive = mostly below about 6.7%;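 note: stock transfer was 7.5 nL into about 10 µL; 0% = median of vehicle wells and 100% = median of positive control wells; one replicate is shown; the record names a cut of 25% in any replicate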
# HNF4A DNA FP = change in binding of human HNF4 alpha to DNA | HNF4a-FITC DNA binding, fluorescence polarization, 1 h | activity change, % at 10 µM | 360,000 tested, 0.3% active; in the data active = activity change above about 30%, passing the limit was not always enough;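 note: controls were the assay level and a saturating level of protein; the project sought stronger binding though the title names inhibitors; some compounds called inactive have numbers as strong as hits; positive values seem to mean higher polarization but the record does not say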
# FGF22 binding = shifts melting point of recombinant human FGF22. Q9HCT0. 340,000 tested, 1.5% active. recombinant FGF22 thermal shift, SYPRO orange fluorescence; percent of sucrose octasulfate shift, DMSO zero. calls only at 9.99 µM;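 active = melting point raised past a set limit in the mean and every replicate; three in four hits are not shown here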
# Target sequence (Q9HCT0 whole entry, looked up): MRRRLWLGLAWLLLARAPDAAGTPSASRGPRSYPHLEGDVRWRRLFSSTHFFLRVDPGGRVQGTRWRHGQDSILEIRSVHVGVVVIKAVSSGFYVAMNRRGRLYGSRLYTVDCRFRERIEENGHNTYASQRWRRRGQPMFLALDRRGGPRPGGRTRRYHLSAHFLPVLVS
# Beta2AR agonist = human beta-2 adrenergic receptor agonism by FAP. AID 504454. Am2.2-beta2AR cells, FAP receptor internalization, flow cytometry; reference of the scale not given here. P07550. response, % (no concentration beside the values). 340,000 tested, 0.43% active;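 active = response above a set limit, near 3 SD of response in nonfluorescent compounds, cut at about 42% in these data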;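 note: stock transfer was 100 nL into about 11 µL; a reference agonist was the positive control; negative values mostly stem from fluorescent compounds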
# Target sequence (P07550 whole entry, looked up): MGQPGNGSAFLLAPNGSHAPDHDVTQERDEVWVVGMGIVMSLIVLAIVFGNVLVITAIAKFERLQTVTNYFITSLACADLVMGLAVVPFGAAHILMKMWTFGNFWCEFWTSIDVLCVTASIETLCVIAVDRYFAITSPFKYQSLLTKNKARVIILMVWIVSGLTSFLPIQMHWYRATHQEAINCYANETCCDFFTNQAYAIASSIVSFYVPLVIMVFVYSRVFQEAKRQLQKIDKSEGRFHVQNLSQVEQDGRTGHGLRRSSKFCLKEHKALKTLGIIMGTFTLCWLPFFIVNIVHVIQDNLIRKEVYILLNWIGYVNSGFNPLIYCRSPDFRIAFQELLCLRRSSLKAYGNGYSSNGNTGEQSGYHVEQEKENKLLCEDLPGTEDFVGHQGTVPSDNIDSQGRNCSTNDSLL
# UCH37 DUB inh = inhibitors of human deubiquitinating enzyme UCH37; inhibition, % (concentration not given with the values); AID 588478; purified proteasome/UCH37, Ub-AMC cleavage fluorescence; Q9Y5K5; 330,000 tested, 0.33% active;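 active = mean of two replicates above 20%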;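 note: 0% = compound-free wells with enzyme and 100% = wells lacking proteasome; stock transfer was 100 nL into about 20 µL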
#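 assay system = human UCH37 enzyme supplied as purified proteasome complex | amount = proteasome at 0.15 nM in the dispensed enzyme solution | schedule = 30 min compound-proteasome preincubation then 25 min substrate reaction, room temperature | measured by = fluorescence, ex 355 nm, em 460 nm | benchmarks = no-proteasome wells (full inhibition) and compound-free wells (no inhibition)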
# ALR inh = blocks human ALR sulfhydryl oxidase activity. inhibition, % (test concentration not listed). 290,000 tested, 3.8% active. purified ALR, DTT oxidation, H2O2 HRP-luminol luminescence. P55789. AID 485317;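 active = mean and each replicate at 75% or more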;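 note: stock transfer was 7.5 nL into about 7.5 µL; 0% = neutral wells and 100% = wells with inactivated enzyme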
# Target sequence (P55789 whole entry, looked up): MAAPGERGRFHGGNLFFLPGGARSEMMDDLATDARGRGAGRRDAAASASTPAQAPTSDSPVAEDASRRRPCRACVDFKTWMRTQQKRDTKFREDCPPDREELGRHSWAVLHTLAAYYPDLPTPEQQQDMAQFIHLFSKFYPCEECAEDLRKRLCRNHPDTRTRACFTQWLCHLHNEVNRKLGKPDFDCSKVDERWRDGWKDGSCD
# E coli growth = E. coli growth inhibition. Escherichia coli growth, OD600, 23 h; stronger effect = lower value. 330,000 tested, 0.21% active. OD600 absorbance (no concentration beside the values);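 active = OD600 absorbance below the run mean of sample wells minus 3.6 SD, in any replicate, cut at about 0.56 in these data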;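 note: stock transfer was 300 nL into about 60 µL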
# * hit, by the source's call; i = inactive; x = no result given; + = active, no number. This is a subset; rates above refer to the full screens.
# Under each structure: LANA-H2A inh, HNF4A DNA FP, FGF22 binding, Beta2AR agonist, UCH37 DUB inh, ALR inh, E coli growth
- CN1C=CC=C/C1=C1\SC(=S)N(Cc2ccccc2)C1=O
  -0.8, 0.4, i, -13, 18, -1, 0.68
- CC(=O)Nc1ccc(Nc2nc(C)c([N+](=O)[O-])c(N(C)c3ccccc3)n2)cc1
  -1.5, 1.3, i, 5, 3.0, -6, 0.73
- O=C(N/N=C/c1ccc(C(F)(F)F)cc1)c1ccncc1
  -0.6, 1.6, i, -2, x, -9, x
- O=C(OCc1ccccc1)c1ccc(NCc2cc(O)ccc2O)cc1
  x, 0.5, i, 14, x, x, x
- CCc1cc(C(c2cccc(OC)c2)N2CCOCC2)c(NC(=O)c2ccccc2)s1 (stereo unspecified)
  1.3, -2.9, x, 0, -0.9, 9, 0.8
- CC(=O)/C(C(=N)N1CCN(C(c2ccccc2)c2ccccc2)CC1)=C(\C)O
  -7.4, -5.6, x, -3, 5.5, 25, x
- Cc1ccc(SCC(=O)OCC(=O)NCc2ccco2)cc1
  -7.3, 0.9, i, -5, 0.9, 26, 0.61
- Cc1cc(C(=O)COC(=O)C2COc3ccccc3O2)c(C)n1CC1CCCO1 (stereo unspecified)
  0.8, 2.7, x, 1, 1.2, -2, 0.72
- COc1ccc(/C=N/NC(=O)Nc2cccc3nsnc23)cc1
  -1.9, 4.0, i, 14, x, -3, x
- CC(C)CC(NC(=O)C1CCC(C)CC1)C(=O)N1CCN(c2ccccn2)CC1 (stereo unspecified)
  -9.3, -1.9, i, -5, 2.6, -4, 0.73
- CN(C)S(=O)(=O)c1ccc(NC(=O)CSc2n[nH]c(=O)n2C2CC2)cc1
  7.1, 0.1, x, -3, 0.5, -5, 0.7
- COCc1c(C(=O)N2CCN(c3ccc(C(F)(F)F)cn3)CC2)oc2ccccc12
  3.2, 1.3, x, 8, 2.6, -6, 0.67
- Cc1cc(C)n2nc(C(=O)N3CCCC(Nc4ccc(C(C)C)cc4)C3)cc2n1 (stereo unspecified)
  7.3, 2.2, i, 3, -25, 97*, 0.66
- Cc1ccc(NC(=O)CCC(=O)NNC(=O)Nc2cccc(Cl)c2)c(C)c1
  0.1, -2.5, i, 1, -0.1, -17, 0.69
- Cc1ccc(Cl)cc1N1CCN(C(=O)C2CCN(S(=O)(=O)c3c(C)nn(C)c3C)CC2)CC1
  -1.7, -2.7, x, 4, 0.6, -16, 0.73
- O=C(C#Cc1ccccc1)c1ccco1
  -7.2, 0.0, i, 82*, x, 21, x
- CN(C(=O)COc1ccccc1C(=O)NCCOc1ccccc1)c1ccccc1
  -2.9, -2.5, i, 32, 3.7, -3, 0.68
- COC(=O)c1cn(NC(=O)Cc2ccccc2OC)c(=O)c2ccccc12
  4.2, -1.9, +, 16, 5.1, x, 0.69
- Cc1ccc(S(=O)(=O)NCCNC(=O)N2CCOCC2)cc1
  -5.8, -1.5, x, 8, -1.6, -16, 0.73
- CC(C)(C)OC(=O)NCCCC[C@H](NC(=O)c1nc[nH]c1C(=O)NCc1ccccc1)C(=O)OC(C)(C)C
  -1.4, 4.7, i, 6, 1.1, -7, x
- CCc1noc(C)c1C(=O)N1CC(C)SC1=Nc1ccc(Cl)cc1 (stereo unspecified)
  -0.4, -4.3, i, -3, 1.7, x, 0.63
- Cc1cccc(OCCCCCN2CCOCC2)c1
  -3.6, -1.0, i, -3, 1.4, -4, 0.6
- N#Cc1nc(Cc2cccc3ccccc23)oc1NCC1CCCO1 (stereo unspecified)
  -2.2, -1.8, x, 4, 2.2, -12, 0.66
- CCOC(=O)N1CCC(NC(=O)c2cc3c(-c4ccccc4F)nn(C)c3s2)CC1
  1.9, -2.1, i, -297, -5.4, -1, 0.71
- O=C(NNc1ccccc1C(F)(F)F)c1sccc1Br
  0.1, -1.0, i, -4, 2.6, -1, 0.65
- CCc1ccc(OCC(=O)Nc2ccncc2)cc1
  -0.9, 1.6, i, 1, 0.6, x, 0.68
- CCCCC(=O)Nc1ccccc1CC
  -0.1, 4.9, i, -5, 6.0, 2, 0.69
- CCc1cccc(CC)c1NC(=O)C1SC(=Nc2ccccc2C)C(c2nc3ccccc3s2)=C1N (stereo unspecified)
  -0.5, 6.3, x, 8, 6.5, -1, 0.74
- N=c1nc(SCCC(=O)O)ss1
  -5.2, 1.2, x, -1, x, -6, x
- CNC(=O)NC1CCCc2ccccc21 (stereo unspecified)
  3.4, -1.1, x, -5, 3.8, 50, 0.67
- CCN(CC)CCn1c2c(c(SCC(=O)Nc3cc(C)on3)nc1=O)CCCC2
  3.9, -2.2, i, 0, -0.7, 1, 0.64
- CCOC(=O)[C@@H]1[C@H]2COc3cc(OC)ccc3[C@@H]2N2C(=O)N(c3ccc(F)cc3)C(=O)[C@@]12C
  3.8, -0.7, x, -6, 1.5, -11, x
- O=c1ccnc(NCCc2ccccc2)[nH]1
  2.7, -0.1, x, 4, 1.4, 0, 0.77
- COCCCC1CCN(C(=O)CCc2nnc(CCCCc3ccccc3)o2)CC1
  9.7, 3.0, i, -8, -1.9, -26, 0.73
- COc1ccc(-n2nc3c(c2NC(=O)C(C)Oc2ccccc2)CS(=O)(=O)C3)cc1 (stereo unspecified)
  1.5, 0.1, i, 0, 0.7, -1, 0.71
- COc1ccc(NC(=S)Nc2ccc(S(=O)(=O)N3CCOCC3)cc2)c(OC)c1
  -3.7, -0.2, i, 6, 4.8, -1, 0.69
- COc1ccc(N2C(=O)CC(Sc3n[nH]c(-c4ccc(C)cc4)n3)C2=O)cc1 (stereo unspecified)
  -9.9, 2.7, x, 2, 1.1, 99*, 0.68
- CCOC(=O)C1=C(O)C(=O)NC(c2ccccc2)=C(OCC)C1
  1.0, 1.7, x, -1, -1.7, 4, 0.68
- CCN=C(N/N=C/c1ccc([N+](=O)[O-])cc1)SC
  1.8, -2.6, x, 0, x, -5, x
- O=C(O)CCCN1C(=O)/C(=C/c2ccc(-c3nc4ccccc4s3)o2)SC1=S
  -14, 51*, x, 35, 13, 52, 0.71
- O=C(Nc1ccc(F)cc1)Nc1ccc(Oc2ncnc3cc(Cl)ccc23)nc1
  2.8, 4.2, i, -3, 2.6, -6, 0.68
- Cc1ccc(S(=O)(=O)NC(=O)Nc2ccc(C)cn2)cc1
  -3.7, -1.8, i, 0, x, -1, x
- Fc1ccc(CNCc2ccc3c(c2)OCO3)cc1
  -1.5, -4.6, i, 8, 1.6, -3, 0.64
- Cc1cc(NC(=O)CCC(=O)N(c2ccc(F)cc2)C(C(=O)NC2CCCC2)c2cccnc2)no1 (stereo unspecified)
  -2.7, 0.8, i, -2, 0.4, -6, 0.64
- COc1ccc(Cl)cc1S(=O)(=O)Nc1noc2ccccc12
  -2.2, 1.9, i, -5, 1.1, -12, 0.63
- NS(=O)(=O)c1ccc(Nc2ccc3nonc3c2[N+](=O)[O-])cc1
  0.6, -1.6, i, -11, 2.6, -1, 0.68
- O=C(COc1ccc(-n2cnnn2)cc1)Nc1cc(Cl)cc(Cl)c1
  x, -1.9, i, 8, 6.1, x, 0.63
- CCN1CCn2c1nc(N1CCCCC1)nc2=O
  -1.5, 1.4, x, 15, 2.2, -5, 0.68
- O=C(CN(C1CCCCC1)S(=O)(=O)c1ccc(F)cc1)NCCCO
  0.0, -3.0, x, -2, -1.0, -4, 0.69
- CCOC(=O)c1c(C)[nH]c(C)c1S(=O)(=O)NCc1ccccc1C
  3.2, 0.7, i, 2, 2.1, -1, 0.7
- CCOC(=O)N1CCN(C(=O)c2ccc3oc(CCCc4ccccc4)nc3c2)CC1
  -0.3, 1.3, i, -6, 5.0, 2, 0.71
- COc1ccc(OCCOC(=O)c2[nH]c(C)c(C(C)=O)c2C)cc1
  1.7, -4.0, x, -1, 0.8, -27, 0.71
- CCOC(=O)c1nnn(-c2nonc2N)c1CSc1nnc(N)s1
  -0.3, -1.9, i, 10, 2.3, 0, 0.72
- O=CN1CCN(C(=S)Nc2ccc(OC(F)F)cc2)CC1
  7.8, -4.5, i, 0, 1.5, 1, 0.68
- c1ccc2[nH]c(CN3CCOCC3)nc2c1
  -6.2, 1.2, x, 4, 1.0, x, 0.67
- CC1(C)CC(=O)C(Sc2nnc(-c3ccc(NS(C)(=O)=O)cc3)n2Cc2ccco2)C(=O)C1
  3.0, 2.7, x, -4, 2.7, 92*, 0.67
- COc1ccc(-c2cnc(N)nc2-c2ccc(OCc3ccccc3)cc2O)cc1
  -3.2, -3.3, i, 2, -0.2, -26, 0.69
- CN(CC(=O)NCc1ccccn1)S(=O)(=O)c1ccccc1
  -6.7, -1.9, x, 9, 4.5, 2, 0.7
- COc1ccc(C(=O)OCC(=O)Nc2cc(C)on2)cc1S(=O)(=O)N1CCOCC1
  0.0, -1.9, x, 4, 0.5, 12, 0.73
- O=S(=O)(c1ccc(SCCOc2ccc(F)cc2)nc1)N1CCCC1
  x, 3.8, i, 3, 1.7, 2, 0.62

# Record cards, from the list above.
# c1ccc2[nH]c(CN3CCOCC3)nc2c1 reads LANA-H2A inh: -6.2; HNF4A DNA FP: 1.2; FGF22 binding: x; Beta2AR agonist: 4; UCH37 DUB inh: 1.0; ALR inh: x; E coli growth: 0.67
# COc1ccc(NC(=S)Nc2ccc(S(=O)(=O)N3CCOCC3)cc2)c(OC)c1 reads LANA-H2A inh: -3.7; HNF4A DNA FP: -0.2; FGF22 binding: i; Beta2AR agonist: 6; UCH37 DUB inh: 4.8; ALR inh: -1; E coli growth: 0.69
# COc1ccc(C(=O)OCC(=O)Nc2cc(C)on2)cc1S(=O)(=O)N1CCOCC1 reads LANA-H2A inh: 0.0; HNF4A DNA FP: -1.9; FGF22 binding: x; Beta2AR agonist: 4; UCH37 DUB inh: 0.5; ALR inh: 12; E coli growth: 0.73

# The list continues:
# Under each structure: LANA-H2A inh, HNF4A DNA FP, FGF22 binding, Beta2AR agonist, UCH37 DUB inh, ALR inh, E coli growth
- Cc1ccc(NC(=O)Cc2ccccc2Cl)cc1S(=O)(=O)N(C)C
  -0.3, 1.4, x, 4, 1.3, -6, 0.66
- CCN(CC)S(=O)(=O)c1ccc(NN)nc1
  4.2, 1.2, x, -3, 1.9, 14, 0.66
- COc1ccc(CCNC(=O)C2CCN(C(=O)c3ccc(Br)cc3)CC2)cc1OC
  1.0, -3.6, i, -15, -1.2, -6, 0.69
- CC(C)(C)NC(=O)C(c1ccc(F)cc1)N(Cc1ccco1)C(=O)CCC(=O)Nc1nccs1 (stereo unspecified)
  12, 1.2, i, 10, 1.7, x, 0.64
- Cc1cccc(C)c1NC(=S)N1CCOCC1
  -1.1, 1.5, i, 7, 2.9, -6, 0.66
- CC(C)(C)NC(=O)CSc1ncnc2c1nnn2Cc1ccccc1Cl
  -4.8, -1.0, x, 8, 4.7, 23, 0.75
- Cc1ccccc1CN1C(=O)CSc2ccc(C(=O)N3CCOCC3)cc21
  -7.0, 1.7, x, -5, 2.8, 2, 0.75
- O=[N+]([O-])c1c(Nc2cccc(O)c2)cc(Cl)c2nonc12
  5.1, -5.4, i, -488, x, x, x
- CCCCNC(=O)CCCCCn1c(=O)[nH]c2cc(C(=O)OC)ccc2c1=O
  0.2, -1.6, i, -6, -24, -5, 0.72
- CCn1nc(C)c(CNC(=O)C2CCC(=O)N(Cc3cccc(F)c3)C2)c1C (stereo unspecified)
  0.7, -1.1, i, -4, 1.8, -8, 0.7
- COc1ccc(S(=O)(=O)Nc2cc(C(=O)NCCC(C)C)ccc2N2CCOCC2)cc1
  -3.0, -3.9, x, -6, 4.6, -13, 0.75
- CN1CCN(S(=O)(=O)c2cccc(C(=O)N(Cc3nnc(-c4ccc(Cl)cc4)o3)C3CC3)c2)CC1
  3.9, 0.0, i, 3, 5.9, -4, 0.7
- O=c1cc(-c2ccc(Cl)cc2)[nH]c2ccccc12
  -1.5, x, x, x, -8.4, -13, 0.65
- CCn1cc(CNC(=O)NC2CCCCC2)c(C)n1
  0.4, -2.9, i, 0, 0.9, -7, 0.63
- NC1=NC[C@H](Cc2ccccc2)N1CCCCC1CCCCC1
  -3.4, 0.6, i, -11, 2.0, -55, 0.64
- CCC(NC(=O)c1cc(COc2ccc(OC)cc2Cl)on1)c1ccncc1 (stereo unspecified)
  -0.2, 7.1, i, 14, 3.2, -4, 0.67
